Cruzain inh Det: cruzain (T. cruzi) inhibition with detergent; P25779; purified cruzain, Z-FR-AMC fluorescence, 0.01% Triton; Potency, µM, inactives show max response, negative = inhibition, most hits filed as inhibitors; 0.43% of 200,000 active;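 also: plate controls were neutral wells for no effect and buffer without enzyme for full effect; nearly all actives have a fitted effect of over 40% in size; top concentration of the series not given in the record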
Target sequence (P25779 123-467 limits assumed): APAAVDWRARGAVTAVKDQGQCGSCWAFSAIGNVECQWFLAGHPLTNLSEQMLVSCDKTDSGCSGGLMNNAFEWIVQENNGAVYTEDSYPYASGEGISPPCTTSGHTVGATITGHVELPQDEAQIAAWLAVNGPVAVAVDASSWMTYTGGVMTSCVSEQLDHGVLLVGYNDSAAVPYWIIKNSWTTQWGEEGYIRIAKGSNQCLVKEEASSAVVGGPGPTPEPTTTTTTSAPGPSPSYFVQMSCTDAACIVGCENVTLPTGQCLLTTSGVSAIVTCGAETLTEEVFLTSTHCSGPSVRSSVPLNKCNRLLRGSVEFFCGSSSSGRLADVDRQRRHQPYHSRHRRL
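Steps: dispense cruzain (1.5 nM final) in acetate buffer pH 5.5 with DTT and 0.01% Triton X-100; pin-transfer compounds; incubate 15 min RT; add Z-FR-AMC (2 uM final); read fluorescence every 30 s, using the 60 s intensity change.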
NS1 inh: inhibitors of influenza NS1 protein function; S. cerevisiae slowed by influenza A NS1, growth recovery by OD600; Potency, µM (titrated, usually from 46.1 µM), for the others: top-dose activity, positive = more growth; 0.4% of 270,000 active; AID 2326; active means well fitted rising curve with a large enough effect; inconclusive means small, poorly fitted or top-dose-only effect; inactive means no such curve, though single readings can be large or run the other way; also: nearly all actives have a fitted effect of over 50% in size
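Read-out: OD600 growth recovery of NS1-expressing budding yeast. Cells grown overnight at 30C in -URA glucose medium, washed, resuspended and diluted 1:100 in 2% galactose assay medium, pH 6.0. Same strain lacking NS1 served as positive control.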
Cruzain inh noDet: inhibitors of Trypanosoma cruzi cruzain without detergent; Potency, µM, for inactives: max response, negative = inhibition, actives largely listed as inhibitors; 2.3% of 200,000 active; P25779; purified cruzain, Z-FR-AMC fluorescence, no detergent;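 also: plate controls were enzyme without inhibitor for no effect and buffer without enzyme for full effect; nearly all actives have a fitted effect of over 40% in size; top concentration of the series not given in the record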
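Detergent-free condition (0.00005% Triton X-100) in acetate buffer pH 5.5 with DTT. 1.5 nM enzyme and compound were pre-mixed 15 min, then 2 uM Z-FR-AMC substrate added; reaction progress from fluorescence change between first and third reads (60 s).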
Active calls of the source: *; ? = inconclusive. Unless noted, calls follow the shape of the dose curve; as a rule, active = well fitted curve in the direction sought with a large enough effect; inconclusive = small, poorly fitted or top-dose-only effect, or another doubt; inactive = no such curve, though single readings can be large; an effect the other way counts as inactive or inconclusive. Potency is read from the fitted curve at half-maximal effect.

Compound,Cruzain inh Det,NS1 inh,Cruzain inh noDet
Cc1cc(C)nc(NC(=O)COc2ccc(Cl)cc2)c1,0.3%,-21%,-1%
C[C@]1(O)CC[C@H]2[C@H]3CC=C4N5CCN=C5CC[C@@]4(C)[C@H]3CC[C@@]21C,2.3%,2%,-10%
CC(CO)(CO)N=Cc1cc(I)cc(I)c1O,0.5%,-53%,-1%
CC(=O)Nc1ccc2c(c1)C(=Nc1ccc(C(=O)O)cc1)c1ccccc1-2,-0.1%,-16%,1%
N=c1ccn2c(n1)O[C@H]1[C@@H](OP(=O)(O)O)[C@H](CO)O[C@H]12,0.8%,-2%,5%
O=C(Nc1ccc2c(c1)Cc1ccccc1-2)[C@@H]1[C@H](C(=O)O)[C@]2(Cl)C(Cl)=C(Cl)[C@@]1(Cl)C2(Cl)Cl,3.1%,9%,26%
C[C@@H]1NCC[C@H](CC(=O)O)[C@H]1CC(=O)O,1.7%,1%,2%
CC(=O)O/C(=C1/C[C@H]2[C@@H]3CC=C4C[C@@H](OC(C)=O)CC[C@]4(C)[C@@H]3CC[C@]2(C)C1=O)C(F)(F)F,1.7%,-20%,-2%
COc1ccc([C@@H](Nc2ccccn2)c2cc(C(C)(C)C)cc(C(C)(C)C)c2O)cc1,-5.0%,-1%,2%
C/C(=C\c1ccc(Cl)cc1)C(C)(C)C(=O)O,1.6%,-10%,14%
CC(C)C[C@@H](N)C(=O)Nc1ccc2ccccc2c1,3.4%,-7%,-5%
O=C(O)C(Sc1ccc(Cl)cc1)Sc1ccc(Cl)cc1,-5.0%,-12%,2%
Cc1ccc(CN2CCN(Cc3ccc(C)o3)[C@@H](C)C2)o1,0.7%,5%,-1%
O=P(O)(CCP(=O)(O)c1ccccc1)c1ccccc1,6.9%,-2%,2%
O=C(O)C(=O)/C=C(\O)c1ccc(Br)cc1,1.3%,0%,-3%
NCCSc1nc(-c2ccccc2)c(-c2ccccc2)o1,2.3%,-9%,-16%
NCC(=O)[C@@H](O)[C@H](O)[C@H](O)CO,5.0%,-4%,-4%
O=C(O)c1ccc(C(=O)O)c(C(=O)O)c1.[NH-][C@@H]1CCCC[C@@H]1[NH-].[Pt],3.8%,-16%,27%
C[C@@H](SCc1ccccc1)C(=O)O,1.3%,1%,6%
NC(=O)C[C@H](N)C(N)=O,-2.3%,-1%,-4%
O=C=Nc1ccc(Cc2ccc(N=C=O)cc2)cc1 (tested in a mixture with another compound),0.3%,-3%,3%
CN(C)Cc1ccc(C(C)(C)C)cc1-c1cc(C(C)(C)C)ccc1CN(C)C,0.4%,-8%,-6%
O=C(O)CCCc1ccc2ccc3ccccc3c2c1,3.1%,-16%,4%
O=C(O)c1c[nH]c2c(ccc3[nH]cc(C(=O)O)c(=O)c32)c1=O,-0.1%,-6%,-1%
NC1=C(O)C(=O)[C@H](c2c[nH]c3ccc(OCc4ccccc4)cc23)O1,1.2%,-6%,-10%
C/C(=N/O)[C@@H]1C[C@H](CC(=O)O)C1(C)C,2.8%,0%,8%
CN(C)CC(C)(C)CN1c2ccccc2Sc2ccccc21,0.4%,-2%,-7%
CC1=CC(C)(C)Nc2ccc(CSc3ccccc3)cc21,-2.2%,9%,-7%
O=C(O)c1ccc(C(=O)O)c2c(C(=O)O)ccc(C(=O)O)c12,3.5%,-4%,0%
CC(C)(C)c1ccc(O)c(CN(Cc2c(O)ccc3ccccc23)C2CCCCC2)c1,-2.4%,-3%,-1%
O=C(c1ccccc1)[C@H]1[C@H](c2ccccc2[N+](=O)[O-])N1C1CCCCC1 (some centres not stated),0.8%,-22%,-3%
N#CC(CC(=O)O)=C(c1ccccc1)c1ccccc1,1.9%,-3%,4%
O=C(O)[C@H]1CCCC[C@@H]1c1c2ccc(=O)c(O)c-2oc2c(O)c(O)ccc12,-18%,-5%,0%
S=C(Nc1ccc2cn[nH]c2c1)Nc1ccc2cn[nH]c2c1,3.6%,-5%,-7%
CCN1CCC(O)([C@H](C(=O)O)c2ccccc2)CC1,-0.6%,3%,6%
N=C1CCC[C@@H]1C(=S)SCCC(N)=O,4.0%,2%,2%
CN1CCN(c2ccncc2S(=O)(=O)N2CCN(C)CC2)CC1,1.8%,0%,3%
O=C(O)CSc1ncccc1[N+](=O)[O-],-2.6%,-4%,4%
O=C(O)C(C(=O)O)P(=S)(S)c1ccccc1 (configuration not stated),5.6%,-1%,-5%
c1ccc2c(CN3CCN(Cc4c[nH]c5ccccc45)CC3)c[nH]c2c1,1.6%,-5%,3%
O=C(O)c1ccc(NS(=O)(=O)Cc2ccccc2)cc1,3.6%,-5%,17%
NC(N)=NC(N)=Nc1c(F)c(F)c(F)c(F)c1F,1.4%,3%,1%
NCCP(=O)(O)O,1.3%,-11%,4%
Cc1nc2cccc([N+](=O)[O-])c2n1CCCN(C)C,1.3%,-9%,4%
C=C(Br)CN(C)CC(=C)Br,1.1%,0%,2%
C[N+]1(CCC(=O)c2ccco2)CC2CCC(CC2)C1 (configuration not stated),-0.8%,-3%,6%
O=C1C(=O)c2ccccc2C(O)=C1C(CCc1ccccc1)C1=C(O)c2ccccc2C(=O)C1=O,-2.6%,-38%,5%
CC(C)=C[C@H]1[C@@H](COC(=O)c2ccccc2Cl)C1(C)C,-6.8%,-8%,2%
Oc1cccc2ccc(SSc3ccc4cccc(O)c4n3)nc12,-0.7%,-41%,-3%
O=C1c2ccccc2-c2cc([N+](=O)[O-])c([N+](=O)[O-])cc21,-3.9%,-38%,-13%
O=C(O)Cc1[nH]cnc1C(=O)O,3.7%,4%,-6%
COc1cc(N=C(N)N=C(N)N)c2ncccc2c1,-0.7%,-3%,0%
CCOc1ccccc1/C=C(\C#N)C(N)=O,3.3%,3%,-2%
COc1cccc2c1C(=O)c1c(O)c3c(c(O)c1C2=O)C[C@](O)(/C(C)=N\O)C[C@@H]3O[C@H]1C[C@H](N)[C@@H](O)[C@H](C)O1,-6.8%,3%,-13%
CC1=c2c(oc3cc(O)c(Nc4c(C)cc(O)cc4O)c(C)c23)=CC(=O)C1=Nc1c(C)cc(O)cc1O,-12%,-3%,2%
COc1ccc(Cc2ccc3[nH]c(=O)cc(C)c3c2)cc1S(=O)(=O)O,2.4%,-8%,-5%

Further compounds.
Compound,Cruzain inh Det,NS1 inh,Cruzain inh noDet
O=C(O)C(Cc1cccs1)C(=O)O,4.8%,-3%,0%
C/C(=N/NS(=O)(=O)c1ccc(C)cc1)P(=O)(O)O,1.1%,-11%,4%
CC[C@H]1CN2CCc3cc(OC)c(OC)cc3[C@H]2C[C@@H]1C[C@H]1NCCc2c1[nH]c1ccc(O)cc21,0.9%,2%,-7%
O=c1oc2cc(N=Cc3ccc4c(c3)OCO4)ccc2c2ccccc12,2.2%,6%,-12%
CC1(C)[C@@H]2CC[C@]1(C)CN(CCC[N+](C)(C)C)C2,3.1%,-3%,-7%
C[N+](C)(C)c1ncnc2c1ncn2[C@@H]1CCCCO1,-1.1%,3%,-2%
C[N+](C)(C)CCCSc1nc2ccccc2[nH]1,4.9%,-1%,9%
O=C(O)c1[nH]c2c([N+](=O)[O-])cc([N+](=O)[O-])cc2c1C(=O)O,2.7%,-6%,-1%
OCCNc1ncnc2nc[nH]c12,-3.2%,13%,21%
Nc1nc(N)c(CCCCc2ccccc2)c(N)n1,6.3%,-8%,-6%
NCCSC(c1ccccc1)c1ccccc1,-1.4%,-4%,-1%
COC(=O)[C@H]1C(=O)[C@H](C(=O)OC)[C@@H]2CC[C@H]1N2C,-1.4%,-3%,-1%
COc1cc(O)c2c(O)c3c(c4c2c1[C@@]1(C4)C(C)=CCCC1(C)C)[C@H](O)[C@@]1(O)CC(=O)C(C(N)=O)=C(O)[C@]1(O)C3=O,6.0%,?,17%
COc1ccc2c3c([nH]c2c1)[C@H]1C[C@@H]2[C@@H](C[C@@H](O)[C@H](OC)[C@H]2C(=O)O)CN1CC3,3.2%,-8%,3%
N=C(N)c1ccc(/C=C\c2ccc(C(=N)N)cc2)cc1,-25%,-48%,3.2µM*
O=S(=O)(O)c1ccc(N=Nc2ccc3c(S(=O)(=O)O)cccc3c2O)c2ccccc12,-3.9%,3%,-9%
ClCC[N+]12CC[N+](CCCl)(CC1)C2 (tested in a mixture with another compound),5.8%,8%,4%
Nc1nc(SCc2ccccc2Cl)cc(C(=O)O)n1,1.1%,0%,-4%
NC(=O)NC(=O)[C@H]1CCCC[C@@H]1C(=O)O,3.3%,4%,6%
O=C(CCN1CCCCC1)c1csc2ccccc12,-23%,-17%,2.5µM*
CN(C)CCNS(=O)(=O)N(C)C,0.4%,0%,6%
CC1=NNC(=S)NCCCN2CCN(CCCNC(=S)NN=C(C)C=NNC(=S)NCCCN3CCN(CCCNC(=S)NN=C1)CC3)CC2,-1.7%,0%,-1%
O=C(O)[C@@H](c1ccccc1)[C@@H](C(=O)O)c1ccccc1,-2.5%,-4%,2%
CC(C)CSC[C@@H]1O[C@H](n2cnc3c(N)nccc32)[C@H](O)[C@@H]1O,-0.1%,11%,10%

Fetched one by one from above (5):
Compound,Cruzain inh Det,NS1 inh,Cruzain inh noDet
O=C(O)c1c[nH]c2c(ccc3[nH]cc(C(=O)O)c(=O)c32)c1=O,-0.1%,-6%,-1%
O=C(O)C(C(=O)O)P(=S)(S)c1ccccc1 (configuration not stated),5.6%,-1%,-5%
CN(C)CCNS(=O)(=O)N(C)C,0.4%,0%,6%
NCCSc1nc(-c2ccccc2)c(-c2ccccc2)o1,2.3%,-9%,-16%
NC1=C(O)C(=O)[C@H](c2c[nH]c3ccc(OCc4ccccc4)cc23)O1,1.2%,-6%,-10%

Next section:
Compound,Cruzain inh Det,NS1 inh,Cruzain inh noDet
O=c1c[n+](CCCC[n+]2cc(=O)o[nH]2)[nH]o1,1.4%,0%,4%
O=C(O)c1cccc(SSc2cccc(C(=O)O)c2)c1,1.8%,-6%,0%
O=[N+]([O-])c1ccc(Nc2nc3ccccc3s2)cc1,3.5µM*,6%,4µM*
CC1(C)N=C(N)N=C(N)N1c1cccc(OCc2cccc(N)c2)c1,3.6%,2%,-6%
S=C1N[C@H](c2ccccc2)N[C@H](c2ccccc2)S1,-5.2%,0%,-10%
Nc1nc(N)c2nn(-c3ccc(C(=O)O)cc3)nc2n1,-1.2%,-3%,4%
Oc1c(C(c2cccs2)N2CCN(c3ccccc3)CC2)ccc2cccnc12 (configuration not stated),1.4%,-106%,?
CC12CC[C@@H]3c4ccc(OP(=O)(O)O)cc4CCC3C1CCC2=O (some centres not stated),11%,-3%,4%
OC(Cc1ccccc1)(Cc1ccccc1)c1ccccc1,3.7%,-19%,8%
CC[C@@](O)(C(=O)O)c1cc2n(c(=O)c1CO)Cc1cc3ccccc3nc1-2,1.1%,-1%,3%
C[N@+]1(CCC(=O)c2ccccc2)CC[C@H]2CC[C@H](C2)C1,2.7%,0%,3%
O=C(O)CS(=O)(=O)C(c1ccccc1)c1ccccc1,5.7%,-4%,-6%
CCN=C=NCCCN(C)C,13%,3%,5%
O=C1c2ccccc2C(=O)c2c1ccc(C(=O)O)c2-c1ccc2ccccc2c1,-4.4%,-1%,-11%
CC(C)CCC1(CCN)C(=O)NC(=O)NC1=O,2.2%,-1%,-8%
NCC(=O)Nc1ccccc1,2.4%,6%,1%
C=CCSc1nc2c(N)ncnc2n1[C@@H]1O[C@H](CO)[C@@H](O)[C@@H]1O,2.0%,0%,6%
NC1(C(=O)OCc2ccccc2)CCCC1,3.7%,-1%,-8%
[O-][N+](CCO)(CCO)c1ncnc2nc[nH]c12,4.4%,-3%,7%
O=S(=O)(O)c1cc(O)c2c(O)c(N=Nc3cccc4ccccc34)c(S(=O)(=O)O)cc2c1,-2.5%,0%,3%
O[C@@H](c1cc([C@@]23C[C@H]4CC[C@@H]2C[C@H](C4)C3)nc2c(Cl)cc(Cl)cc12)C1CCCCN1 (some centres not stated),-2.3%,-3%,3%
N#Cc1c(NC(=O)CCC(=O)O)ccc2ccccc12,2.2%,-1%,6%
O=C(O)c1ccncc1.O=C(O)c1ccncc1.[Cl][Pt]([Cl])([Cl])[Cl],0.5%,-13%,4%
CN(C)CCCc1cccnc1,-0.3%,0%,5%

Screens: PubChem, National Center for Advancing Translational Sciences (NCATS)

This is a subset, so the mix of outcomes need not match the whole.
